T cruzi repl – blocks replication of Trypanosoma cruzi; T. cruzi beta-gal in NIH3T3, luminescence, 90 h; inhibition, % (concentration not given with the values); 300,000 compounds, 1.4% hits;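 active = mean inhibition across valid replicates above about 55%, limit read from the data; inconclusive = mean below that limit but half or more replicates reach it; inactive = mean below it, under half of replicates reach it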;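 also: signal also drops with host cell toxicity which is not excluded here; 0% = plate median of DMSO wells and 100% = zero luminescence signal; higher percent means less beta-gal luminescence so fewer parasites; stock transfer was 50 nL into about 50 µL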
rRNA inh HTS – selective bacterial rRNA inhibition in E. coli; E. coli WT GFP vs humanized-ribosome RFP mutants, fluorescence, 24 h; active compounds read low; DMSO median 0, no signal -100; GFP signal change (wild-type ribosome), % (test concentration not listed); 350,000 compounds, 1.6% hits; AID 720706;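 active = significant combined selectivity score with lowered wild-type GFP, culture density cut under 30%, mutant RFP and density less affected; inactive = any of these conditions unmet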; also: one replicate is shown; some compounds called inactive have numbers as strong as hits
Beta apoptosis – beta cell apoptosis inhibition; INS-1E cytokine-induced death, ATP luminescence, 48 h; percent of positive-control rescue, neutral wells zero; protection from apoptosis, % (test concentration not listed); 300,000 compounds, 0.8% hits; AID 435005;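 active = all replicates at 75% or more, or half of them and the mean; inconclusive = half reach 75% but not the mean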;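 also: 0% = cytokine-treated negative control wells and 100% = positive control rescue; higher means more ATP so stronger rescue from cytokine killing; wells of about 40 µL received 100 nL stock; the first replicate is given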
FGF22 binding – shifts melting point of recombinant human FGF22 | calls only at 9.99 µM | recombinant FGF22 thermal shift, SYPRO orange fluorescence; percent of sucrose octasulfate shift, DMSO zero | 340,000 compounds, 1.5% hits | AID 651658 | Q9HCT0;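 active = melting point raised past a set limit in the mean and every replicate; inconclusive = no clear call; three in four hits are not shown here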
Target sequence (Q9HCT0 whole entry, looked up): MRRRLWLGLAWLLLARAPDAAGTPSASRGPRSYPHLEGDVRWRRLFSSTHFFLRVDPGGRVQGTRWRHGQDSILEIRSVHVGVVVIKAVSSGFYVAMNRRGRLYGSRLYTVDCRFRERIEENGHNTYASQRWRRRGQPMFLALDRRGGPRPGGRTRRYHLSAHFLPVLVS
Calb FLC – C. albicans growth modulation with fluconazole; 300,000 compounds, 0.57% hits; AID 1979; C. albicans CaCi-2 (fluconazole-resistant clinical isolate) + fluconazole, Alamar Blue growth, 48 h; growth inhibition, % (test concentration not listed);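 active = most replicates above 75%; inconclusive = exactly half above 75%; inactive = most below 75%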;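 also: all wells also contain fluconazole at 8 µg/ml as a sub-toxic cotreatment; 0% = median of DMSO wells and 100% = median of geldanamycin control wells; wells of about 8 µL received 7.5 nL stock; the first replicate is given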
ALR inh – inhibitors of human sulfhydryl oxidase ALR; purified ALR, DTT oxidation, H2O2 HRP-luminol luminescence; P55789; AID 485317; inhibition, % (no concentration beside the values); 290,000 compounds, 3.8% hits;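 active = mean and each replicate at 75% or more; inconclusive = only one of the two met; inactive = neither met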;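 also: stock transfer was 7.5 nL into about 7.5 µL; 0% = neutral wells and 100% = wells with inactivated enzyme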
Target sequence (P55789 whole entry, looked up): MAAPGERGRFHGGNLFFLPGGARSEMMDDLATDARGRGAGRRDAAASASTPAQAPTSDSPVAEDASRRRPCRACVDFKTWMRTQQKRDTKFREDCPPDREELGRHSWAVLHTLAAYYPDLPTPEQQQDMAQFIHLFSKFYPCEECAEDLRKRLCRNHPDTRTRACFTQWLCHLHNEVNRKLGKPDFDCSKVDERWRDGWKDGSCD
MLL AF4-AF9 inh – blocks AF4 peptide binding to human AF9; AlphaScreen, biotin-AF4 peptide binding to FLAG-AF9; AID 651704; inhibition, % at 10 µM; P42568; 350,000 compounds, 0.47% hits;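 active = every replicate reaching a set inhibition limit, whatever the replicate mean, cut at about 25% in these data; inconclusive = mean inhibition reaches that limit but some replicates miss it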;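 also: 0% = plate neutral control median and 100% = total signal loss; the record names both 10 and 1 µM as test concentration; the first replicate is given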
Target sequence (P42568 whole entry, looked up): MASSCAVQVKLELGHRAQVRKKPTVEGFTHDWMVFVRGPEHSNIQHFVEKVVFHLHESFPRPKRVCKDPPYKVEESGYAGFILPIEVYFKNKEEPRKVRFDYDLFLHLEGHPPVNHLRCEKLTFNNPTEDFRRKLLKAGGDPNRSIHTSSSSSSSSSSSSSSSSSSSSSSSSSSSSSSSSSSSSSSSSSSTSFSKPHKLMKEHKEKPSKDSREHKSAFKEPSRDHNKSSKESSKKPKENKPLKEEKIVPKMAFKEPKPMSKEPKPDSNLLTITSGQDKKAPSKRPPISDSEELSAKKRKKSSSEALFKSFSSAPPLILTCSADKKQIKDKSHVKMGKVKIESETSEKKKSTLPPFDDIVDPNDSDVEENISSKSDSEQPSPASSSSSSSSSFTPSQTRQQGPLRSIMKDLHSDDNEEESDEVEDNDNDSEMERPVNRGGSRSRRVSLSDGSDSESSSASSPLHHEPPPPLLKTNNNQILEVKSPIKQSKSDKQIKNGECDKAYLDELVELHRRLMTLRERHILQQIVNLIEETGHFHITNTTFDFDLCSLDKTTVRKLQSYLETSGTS
RanGTP-Imp inh – disruptors of Ran-importin-beta complex formation – biochemical, FRET, CFP-Ran, YFP-importin-beta, homogeneous, primary screen | cell-free CFP-Ran/YFP-importin-beta FRET ratio | inhibition, % (concentration not given with the values) | 300,000 compounds, 1.1% hits;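 active = most replicates above 15%; inconclusive = exactly half above 15%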;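 also: 0% = DMSO wells and 100% = Ran loaded with GDP instead of GTP; wells of about 40 µL received 100 nL stock; the first replicate is given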
rRNA inh HTS OD600 – also measured in rRNA inh HTS; calls as there; OD600 change, %; measured here: OD600 growth;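 optical density of the mix in the first replicate; 0 = DMSO median and -100 = no signal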
rRNA inh HTS RFP – second read-out of rRNA inh HTS, no call of its own (marks repeat the call); RFP signal change, %; measured here: RFP humanized mutant strains;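 first replicate; 0 = DMSO median and -100 = no signal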
* hit, by the source's call; i = inactive; ? = inconclusive; · = no result given. An excerpt; the hit share may differ from the screen's.

SMILES	T cruzi repl	rRNA inh HTS	rRNA inh HTS OD600	rRNA inh HTS RFP	Beta apoptosis	FGF22 binding	Calb FLC	ALR inh	MLL AF4-AF9 inh	RanGTP-Imp inh
O=C(O)Cn1cccc1C(=O)c1ccccc1	·	11	7	-1.9	-5	i	-2	1	-12	1.7
O=S(=O)(c1ccc(NC(=S)NCc2ccco2)cc1)N1CCCCC1	·	23	-4	59	-2	i	4	7	3.5	2.2
CCCn1c(=O)c2c(c3ccccc31)OC(C)C(=O)N2 (stereo not drawn)	-14	·	·	·	-7	·	-1	0	·	3.5
O=C(CCN1CCCCC1)Nc1ccccc1	9	20	13	1.2	-3	i	-15	6	-0.4	5.1
Cc1cc(C)cc(N(CC(=O)Nc2ccccc2C(=O)N2CCOCC2)S(C)(=O)=O)c1	-5	·	·	·	-4	·	1	-11	·	0.8
CCN(CC(=O)N1CCCCCC1)S(=O)(=O)c1ccc(Cl)cc1	5	·	·	·	5	·	-25	0	·	?
N#C/C(=C\c1ccc(N2CCCC2)c([N+](=O)[O-])c1)c1nc2ccccc2[nH]1	8	·	·	·	7	·	28	-6	·	3.2
Cc1c(N=Cc2ccccn2)c(=O)n(-c2ccccc2)n1C	-5	·	·	·	2	·	-2	98*	·	-0.7
C=CCOc1ccc(/C(O)=C2\C(=O)C(=O)N(CCN(C)C)C2c2cccs2)cc1 (stereo not drawn)	6	·	·	·	-5	·	-2	-3	·	0.8
CC(OC(=O)c1nc(Cl)ccc1Cl)C(=O)c1ccccc1 (stereo not drawn)	-15	1	11	-0.9	4	i	-5	0	-4.0	·
O=C(COC(=O)c1nc(Cl)ccc1Cl)Nc1ccc2[nH]c(=O)[nH]c2c1	-6	8	11	-0.7	-10	i	1	-16	-1.1	2.2
CCN1CCN(C(=O)C2CCN(c3nnc(C)c4c(C)n(-c5ccc(C)cc5)nc34)CC2)CC1	20	5	-3	2.4	1	i	7	-6	-4.6	3.8
CC(NC(=O)COC(=O)CNC(=O)c1ccccc1Cl)C1CC2CCC1C2 (stereo not drawn)	·	0	-2	1.7	1	i	·	·	1.9	·
N#CC1=C2SCN(Cc3ccccc3)CN2C(=O)CC1c1ccccc1F (stereo not drawn)	-16	·	·	·	-3	·	0	-25	·	?
CCN(CC)C(=O)Cn1nc(-c2ccc(Cl)cc2)c2ccccc2c1=O	8	-5	-12	0.3	-1	i	1	-3	-1.6	-2.0
COc1cccc(C(=O)NC(C)c2ccc(Br)cc2)c1 (stereo not drawn)	18	-27*	-7.3*	-7.0*	-6	i	13	0	-0.7	-0.3
Cc1ccc2ccc3cccc4ccc1c2c34	·	0	3	1.2	2	i	·	5	·	·
CS(=O)(=O)N(CC(=O)NCc1ccncc1)c1ccc(F)c(Cl)c1	-6	7	3	4.5	-4	i	-1	1	-0.7	-4.3
COc1cc(C2C(C#N)=C(N)N(Nc3ccccc3)C3=C2C(=O)CC(C)(C)C3)ccc1OCc1ccccc1 (stereo not drawn)	36	·	·	·	11	·	2	-6	·	5.1
O=[N+]([O-])c1ccc(-c2nnc(CNC3CCCC3)o2)cc1	-3	15	12	-0.2	-1	i	8	-16	-0.8	-1.8
CCOc1ccc(CCNc2nc3c(c(=O)n(C)c(=O)n3C)n2CC)cc1OCC	-60	·	·	·	3	·	-29	0	·	-0.8
COc1ccc(C2(CNC(=O)c3ccc(N)cc3)CCCC2)cc1	-2	-12	-12	-3.1	-3	i	-18	-5	0.6	2.3
COC(=O)c1sccc1NC(=O)Nc1ccc(C)c(C)c1	·	-9	-23	2.3	-2	i	6	47	-4.0	·
COc1ccc(OC)c(NC(=O)NNC(=O)COc2ccc(F)cc2F)c1	-7	3	4	1.8	0	i	1	13	1.5	-1.2
COc1ccc(Cc2nnc(NC(=O)CS(=O)(=O)c3ccc(C)cc3)s2)cc1OC	?	-9	-6	-2.8	-2	i	3	-2	-3.8	-0.7
COc1ccccc1NC(=S)NNC(=O)c1nn(C)cc1Cl	-6	·	·	·	-2	·	3	34	·	0.5
Cc1cc(-c2sccc2C)nc(-n2cccc2)n1	-4	·	·	·	-1	·	15	13	·	9.7
COCCN(C(=O)CSc1nc(-c2ccccc2)cn1N)c1c(N)n(Cc2ccccc2)c(=O)[nH]c1=O	-1	14	10	-1.3	·	i	-20	-12	-5.4	3.9
O=C1N=C(N2CCCCC2)S/C1=C/C1=Cc2ccccc2OC1	8	5	0	0.2	-1	i	46	3	4.1	-35
COc1ccc2c(c1)c(=O)oc1cc(OCC(=O)N3CCc4ccccc4C3)ccc12	3	·	·	·	1	·	-4	-7	·	-2.1
O=C(NCc1cccs1)Nc1cccs1	-2	4	5	4.2	-13	·	8	48	·	-0.9
Cc1cc(=O)oc2cc(Oc3ccc([N+](=O)[O-])cc3C(F)(F)F)ccc12	43	·	·	·	3	·	-2	-3	·	1.3
Cc1ccc2[nH]c3c(c2c1)CCCC3NC(=O)CCl (stereo not drawn)	-46	·	·	·	-18	·	-1	40	·	?
C=CCOc1ccc(CNn2cn[nH]c2=S)cc1OC	5	-1	-5	0.4	-2	i	0	-22	6.4	?
COc1ccc(S(=O)(=O)N(CCC(N)=O)Cc2ccco2)cc1OC	-13	0	8	-0.8	-2	i	2	-6	-2.0	4.3
CCc1c(C)nc(N)nc1OCC(F)(F)C(F)F	1	·	·	·	-9	·	?	-1	·	-1.0
CCN1CCN(C(=O)CS(=O)Cc2nc(-c3ccc(OC)cc3)oc2C)CC1 (stereo not drawn)	1	4	19	-0.4	-11	i	4	99*	-7.7	-1.5
Cc1ccc(CNS(=O)(=O)c2ccc3c(c2)n(C)c(=O)c(=O)n3C)cc1	-10	9	-2	0.6	-8	i	29	18	-2.5	-1.9
O=C(CSc1nccn1Cc1ccccc1)NCc1ccccc1	-15	-30	-29	-1.9	0	i	5	-20	4.0	-3.0
NC(=O)C1CCN(C(=O)/C(=C/c2ccco2)NC(=O)c2ccccc2)CC1	-6	7	12	-1.5	-3	i	-9	·	0.1	-1.3
C=CCNCCOCCSc1ccc(Cl)cc1	39	·	·	·	-14	·	1	0	·	5.2
Cc1nc(NC(=O)CSc2nc3ccccc3s2)sc1C(=O)N(C)C	-4	-4	-12	-3.6	-6	i	1	9	-18	2.1
O=C(COc1ccc2ccccc2c1)N[C@@H](C(=O)O)c1ccc(O)cc1	-12	4	13	0.4	-11	i	-6	·	-1.2	4.7
CCOC(=O)N1CCN(C(=O)C2CCN(S(=O)(=O)N3CCCC3)CC2)CC1	-36	·	·	·	-3	·	17	-8	·	3.2
O=C(NCCN1CCCCC1)Nc1ccccc1F	-13	20	8	33	1	i	-1	-11	-1.7	-0.6
Cc1ccc(S(=O)(=O)N2CCC(C(=O)NCCc3ccc(S(N)(=O)=O)cc3)CC2)cc1	-13	·	·	·	-3	·	20	-5	·	-2.9
CN(C)S(=O)(=O)n1cnc2ccccc21	2	·	·	·	-2	·	-13	-4	·	-1.4
COc1ccccc1NC(=O)c1ccc(NC(=O)c2ccco2)cc1	6	-3	2	-4.2	·	i	-3	2	0.0	2.6
COc1ccc(CN2C(=NC(=O)C3CCCO3)SC3CS(=O)(=O)CC32)cc1OC (stereo not drawn)	-11	2	16	-1.3	-2	i	-9	-2	-4.5	0.7
COc1ccc(OCCC(=O)OCC(=O)NCCc2ccccc2)cc1	-4	-16	-1	12	-3	i	44	-8	0.0	1.1
CCN(CC(=O)Nc1c(F)cccc1F)C(=O)c1ccc2c(c1)OCO2	·	5	14	-0.2	-4	i	·	-2	-0.7	·
COc1ccc(Oc2ncnc3c2ncn3Cc2ccccc2)cc1	-4	·	·	·	0	·	-14	-3	·	-2.1
COC(c1ccccc1)c1nnc(CCC(=O)NC2CCCCC2)o1 (stereo not drawn)	-3	17	0	6.3	-4	i	14	9	-0.4	-3.6
CCn1nc(C(=O)Nc2cccc(S(=O)(=O)N3CCCC3)c2)c2ccccc2c1=O	·	-27*	-19*	-0.6*	3	i	·	1	2.9	·
CC(=O)c1cccc(NC(=O)C(OC(=O)/C=C/c2ccc3c(c2)OCO3)c2ccccc2)c1 (stereo not drawn)	9	·	·	·	-3	·	-13	·	·	-0.6
CC(=O)Nc1ccc(NC(=O)CCc2nc3sc4c(c3c(=O)[nH]2)CCCC4)cc1	-10	8	9	0.0	1	i	11	27	-14	-0.6
Cc1ccc(-c2csc3nc[nH]c(=O)c23)cc1	-35	-16	-24	-4.3	·	i	-17	8	-11	0.8
CN(CCc1ccccn1)C(=O)Nc1ccc(Cl)cc1	8	·	·	·	-9	·	-5	-7	·	-1.0
Cc1cccc(NC(=O)Nc2ccc(C)c(C)c2)n1	9	·	·	·	2	·	-5	-6	·	1.4
CCc1nnc(NC(=O)C2Cc3ccccc3CN2S(=O)(=O)c2c(C)c(C)cc(C)c2C)s1 (stereo not drawn)	25	4	2	0.3	-1	i	13	-12	-1.1	0.6

More entries follow:
SMILES	T cruzi repl	rRNA inh HTS	rRNA inh HTS OD600	rRNA inh HTS RFP	Beta apoptosis	FGF22 binding	Calb FLC	ALR inh	MLL AF4-AF9 inh	RanGTP-Imp inh
CCOc1cccc(/C(O)=C2/C(=O)C(=O)N(CCOC)C2c2ccncc2)c1 (stereo not drawn)	-8	·	·	·	-1	·	-1	6	·	3.1
CCOC(=O)CC(=O)Nc1ccccc1C(=O)O	-29	·	·	·	-5	·	5	-5	·	2.2
COc1ccc(/C=N/Nc2nonc2N)cc1OC	2	·	·	·	3	·	5	39	·	-0.2
NS(=O)(=O)c1ccc(CNS(=O)(=O)c2ccc3c(c2)OCCO3)cc1	5	1	10	-0.9	-4	i	-3	-1	-2.3	-0.1
CCOC(=O)c1cnc2ccc(OCC)cc2c1NCc1ccccc1OC	38	·	·	·	23	·	8	-5	·	-0.6
COC(=O)c1ccc2c(=O)n(CCN3CCOCC3)c(SCC(=O)NCc3ccccc3)nc2c1	36	6	7	-1.6	-23	i	2	-38	1.0	2.7
O=C(Nc1ccccc1)c1ccc(NC2CCCCC2)c(S(=O)(=O)N2CCOCC2)c1	40	·	·	·	15	·	14	-5	·	6.0
O=C(Nc1ccc2c(c1)nc1n2CCN(Cc2ccccc2)C1)c1cccs1	6	-6	-5	-3.3	6	·	-7	-21	·	-13
CCOC(=O)C1(Cc2ccc(Cl)cc2)CCN(C(=O)c2cscn2)CC1	9	-26	-32	-5.7	5	i	10	3	-0.7	-4.6
Cc1cc(OCC(=O)NNC(=O)c2ccncc2)cc(C)c1Cl	·	-8	-9	-1.3	-3	i	-8	-7	-2.2	·
O=C(/C=N/O)NCCCN1CCOCC1	-5	·	·	·	-3	·	1	-6	·	2.0

Random excerpt: two compounds from above
SMILES	T cruzi repl	rRNA inh HTS	rRNA inh HTS OD600	rRNA inh HTS RFP	Beta apoptosis	FGF22 binding	Calb FLC	ALR inh	MLL AF4-AF9 inh	RanGTP-Imp inh
NS(=O)(=O)c1ccc(CNS(=O)(=O)c2ccc3c(c2)OCCO3)cc1	5	1	10	-0.9	-4	i	-3	-1	-2.3	-0.1
CCOc1cccc(/C(O)=C2/C(=O)C(=O)N(CCOC)C2c2ccncc2)c1 (stereo not drawn)	-8	·	·	·	-1	·	-1	6	·	3.1

Assay outcomes as filed in PubChem BioAssay.
